Lipid droplet = hepatic lipid droplet formation modulation | AML12 mouse hepatocytes, oleate lipid droplets, BODIPY imaging | inhibition, % at 6.5 µM | 0.4% of 240,000 active;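 active means lipid droplet intensity inhibited by at least 50%, with more than 500 cells counted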
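Assay system: AML12 hepatocytes (mouse) / Also added: 100 µM oleic acid challenge / Times: overnight treatment with compound plus oleate / Detection: high-content imaging of BODIPY-stained droplets and DAPI nuclei / Evaluation: % inhibition of lipid droplet signal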
TNAP activation fold = human TNAP enzyme activators, primary screen, biochemical, luminescent, no phosphate acceptor, uHTS (AID 1001). one-dose activation fold at 20 µM; EC50 in µM for titrated hits. 0.03% of 200,000 active. purified TNAP, luminescent activation assay, no phosphate acceptor; higher activation fold means a stronger effect; in the data active means activation fold from about 3, or a potency from the dose series; inactive means the rest, 99 in 100 with activation fold below about 1.6; further: many of its hits are not listed in these tables
M1AAP inhibition = malaria alanyl aminopeptidase activity blockers – biochemical, fluorogenic H-Leu-NHMec substrate, 1536-well (AID 1445); recombinant M1AAP, H-Leu-NHMec fluorogenic kinetic assay; higher % means a stronger effect; one-dose inhibition, % at 30 µM; IC50 in µM for titrated hits; 0.42% of 220,000 active;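 active means primary inhibition above the hit cutoff, then over 50% inhibition at one or more dose response concentrations, cut at about 23% in these data, passing the limit was not always enough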;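 further: plate controls were DMSO full reaction for no effect and no enzyme background for full effect; strong numbers were not always called active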
K1F lysis inhibition = protection from phage-mediated lysis, alamar blue read-out – E. coli UTI89, K1F phage, bacterial capsule biogenesis inhibitors (AID 488966). one-dose inhibition, % at 100 µM; IC50 in µM for titrated hits. 0.02% of 340,000 active. E. coli UTI89 K1F phage lysis, alamar blue, 2 h; higher % means a stronger effect;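 active means phage lysis inhibition, versus mean bacterial control, above a set limit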;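 further: capsule biogenesis inhibitors block K1F phage lysis so surviving cells raise fluorescence; higher fluorescence means more inhibition of phage lysis; actives were called in the ten point dose series up to 300 µM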
M17LAP inhibition = P. falciparum M17LAP inhibitors, primary screen, biochemical, fluorogenic H-Leu-NHMec substrate, 1536-well (AID 1619); recombinant M17LAP, H-Leu-NHMec fluorogenic kinetic assay; higher % means a stronger effect; one-dose inhibition, % at 30 µM; IC50 in µM for titrated hits; 0.38% of 220,000 active;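 active means compound inhibiting the enzyme by more than half at any dose during confirmatory dose-response retesting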;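 further: plate controls were full reaction with DMSO carrier for no effect and no enzyme background for full effect; strong numbers were not always called active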
XIAP antagonists = small molecules displacing peptide from XIAP – biochemical, IAP family, fluorescence polarization (AID 1018) | one-dose displacement, % at 20 µM; IC50 in µM for titrated hits | 0.007% of 200,000 active | XIAP BIR domain, fluorescence polarization peptide displacement; higher % means a stronger effect; in the data active means displacement above about 50%; further: a part of the inactive calls stands beside numbers as strong as those of hits
Siah-1 displacement = blockers of Siah-1 interaction with plectin peptide – biochemical, fluorescence polarization, rhodamine-plectin, uHTS, primary screen (AID 1817); Siah-1 / rhodamine-plectin peptide fluorescence polarization; higher % means a stronger effect; 0.02% of 290,000 active; one-dose displacement, % at 20 µM; IC50 in µM for titrated hits;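 active means displacement of at least 50% at 20 µM, with a fluorescence ratio check between 0.3 and a set limit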;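 further: plate controls were Siah plus tracer with DMSO for no effect and tracer alone without Siah for full effect; strong numbers were not always called active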
Lipid droplet cells 6.5 µM = recorded beside Lipid droplet, whose call it bears; cell count; measured here: cell count, cytotoxicity flag;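 cells counted across two imaged fields per well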
* = called active by the depositor; . = not tested or not shown; [ ] = remark or other dose. A portion of the library; count on the stated rates, not on these rows.

SMILES | Lipid droplet | TNAP activation fold | M1AAP inhibition | K1F lysis inhibition | M17LAP inhibition | XIAP antagonists | Siah-1 displacement | others
CC(NC(=O)C(=O)NN=C1CCCCCC1)c1ccccc1 (stereo not given) | . | 1 | -1% | 0.4% | 3% | 2.4% | 4%
CCOC(=O)C1=C(C)N(C)C(=S)NC1c1ccccc1Cl (stereo not given) | . | 1.1 | 0% | 3.2% | 10% | -1.0% | 4%
Cc1ccc(OCC(=O)N/N=C\c2ccco2)c(C)c1 | . | 1 | 0% | 3.5% | 4% | -3.7% | 4%
C=CCOc1c2ccc(C(=O)NCc3ccccc3OC)cc2nn1C | . | 1.1 | 1% | 0.7% | -18% | -1.4% | -1%
CCOc1ccc(N2CC(C(=O)OC)CC2=O)cc1 (stereo not given) | -12 | 1.1 | 5% | 1.9%[50 µM] | -2% | -3.1% | 13% | Lipid droplet cells 6.5 µM=632
COc1ccc(C(=O)c2oc3nc(C)cc(C)c3c2N)cc1 | . | 1 | 4% | 0.2% | 2% | -5.8% | -1%
O=C(Nc1ccsc1C(=O)NC1CC1)c1ccccc1 | 3 | 1 | -1% | 0.2% | -3% | -0.9% | 5% | Lipid droplet cells 6.5 µM=732
Cc1ccc(-c2noc(/C=C/c3ccccc3)n2)cc1 | . | 1 | -7% | 2.5% | -10% | -1.7% | 3%
O=C1Nc2ccccc2C(=O)C1(Cl)Cc1ccccc1 (stereo not given) | . | 1 | 9% | -0.6% | -17% | -0.9% | 3%
COC(=O)CC1C(=O)NCCN1C(=O)Nc1ccc(Cl)cc1 (stereo not given) | . | 1.1 | 2% | 0.6% | -4% | -4.8% | 2%
Cc1ccc(-n2nc(-c3ccc(N)cc3)cc2N)cc1 | 3 | 1 | 5% | 0.5% | 9% | -12% | -1% | Lipid droplet cells 6.5 µM=599
CCCN1CCC(=NNC(=O)c2ccc(Br)o2)CC1 | . | 0.9 | 7% | 0.0% | 15% | -5.9% | -4%
Cc1ccc(-c2cnn(-c3cccc(C(F)(F)F)c3)c2N)cc1 | . | 1.2 | -3% | 0.5% | 13% | -7.3% | 2%
Cc1ccc(S(=O)(=O)N2CCC(=O)N2)cc1 | . | 1 | 5% | 0.6% | 16% | -2.1% | 4%
N#CCSc1nc2scc(-c3cccs3)c2c(=O)n1CCc1ccccc1 | . | 1.1 | -5% | 0.3% | -7% | -0.7% | -2%

The last three compounds of the part above lead into the next:
SMILES | Lipid droplet | TNAP activation fold | M1AAP inhibition | K1F lysis inhibition | M17LAP inhibition | XIAP antagonists | Siah-1 displacement | others
Cc1ccc(-c2cnn(-c3cccc(C(F)(F)F)c3)c2N)cc1 | . | 1.2 | -3% | 0.5% | 13% | -7.3% | 2%
Cc1ccc(S(=O)(=O)N2CCC(=O)N2)cc1 | . | 1 | 5% | 0.6% | 16% | -2.1% | 4%
N#CCSc1nc2scc(-c3cccs3)c2c(=O)n1CCc1ccccc1 | . | 1.1 | -5% | 0.3% | -7% | -0.7% | -2%
CCn1ccc(C(=O)NC2C(=O)N3C(C(=O)O)=C(C)CSC23)n1 (stereo not given) | . | 1.1 | -2% | 0.3% | 25% | -0.8% | -2%
CCOC(=O)/C=C1\SCC(=O)N1CC(=O)Nc1ccc2c(c1)CCC2 | . | 1.1 | 7% | 6.5% | 0% | -8.7% | 2%
CCOC(=O)/C(C#N)=C\C1=C(N2CCCC2)CC(C)(CC)OC1 (stereo not given) | 14 | 0.9 | 4% | 0.7% | 7% | -5.2% | 6% | Lipid droplet cells 6.5 µM=747
N#CCCn1nnc2ccccc21 | . | 1.1 | 6% | 0.7% | 9% | 0.8% | 0%
COC(=O)c1cc(OC)ccc1-c1ccc(OC)cc1 | . | 1 | 6% | 1.4% | 2% | -4.7% | -4%
CCC(=O)Nc1nnc(SCC(=O)c2ccc3c(c2)Cc2ccccc2-3)s1 | . | 0.9 | 3% | 2.2% | -2% | -0.6% | 0%
N#CC1=C(N)Oc2cc(Nc3ccccc3)ccc2C1c1ccncc1 (stereo not given) | . | 1 | 8% | -0.8% | 1% | -0.9% | 0%
Cc1ccc(/C=N/NC(=O)c2cc3c(ccc4ccccc43)o2)cc1[N+](=O)[O-] | . | 1 | 7% | -0.2% | -3% | -4.6% | 5%
Cc1ccc2[nH]c(C)c(/C=N/Nc3nc4ccccc4s3)c2c1 | . | 0.9 | 7% | 0.0% | 7% | 0.1% | 3%
O=[N+]([O-])c1ccc(C2CCCC/C2=N/OCc2ccccc2F)c([N+](=O)[O-])c1 (stereo not given) | . | 1 | 4% | 0.2% | -7% | -2.3% | -3%
CCCCC[n+]1ccn(-c2nc3ccccc3nc2[N-]S(=O)(=O)c2ccc(C)cc2)c1 | . | 1 | 9% | 1.6% | -1% | 1.1% | 12%
Cc1cccnc1NC1(C(F)(F)F)N=C(c2ccccc2)NC1=O (stereo not given) | . | 1.1 | -3% | 6.4% | -12% | -4.3% | 5%
Cc1cc(=O)oc2cc(OCC(=O)Nc3nnc(CC(C)C)s3)ccc12 | . | 1.1 | 1% | 2.6% | -1% | -8.3% | 0%
CCOc1cc(NC(=S)NCC2CCCO2)c(OCC)cc1NC(=O)c1ccccc1C (stereo not given) | . | 1.1 | 6% | -0.3% | 6% | -2.8% | 1%
COc1ccc(C(=O)c2ccc(N(C)C)cc2)c(OC)c1 | . | 1.1 | 14% | 4.9% | 11% | 0.4% | 2%

Among those listed so far, 3 contain fluorine:
SMILES | Lipid droplet | TNAP activation fold | M1AAP inhibition | K1F lysis inhibition | M17LAP inhibition | XIAP antagonists | Siah-1 displacement | others
Cc1ccc(-c2cnn(-c3cccc(C(F)(F)F)c3)c2N)cc1 | . | 1.2 | -3% | 0.5% | 13% | -7.3% | 2%
O=[N+]([O-])c1ccc(C2CCCC/C2=N/OCc2ccccc2F)c([N+](=O)[O-])c1 (stereo not given) | . | 1 | 4% | 0.2% | -7% | -2.3% | -3%
Cc1cccnc1NC1(C(F)(F)F)N=C(c2ccccc2)NC1=O (stereo not given) | . | 1.1 | -3% | 6.4% | -12% | -4.3% | 5%

Other results follow.
SMILES | Lipid droplet | TNAP activation fold | M1AAP inhibition | K1F lysis inhibition | M17LAP inhibition | XIAP antagonists | Siah-1 displacement | others
O=C(Cc1ccccc1)N[C@@H](Cc1ccccc1)c1nc2ccccc2[nH]1 | . | 1 | -10% | 0.1% | 4% | -4.4% | -4%
O=C(O)CCn1nnc(-c2cccs2)n1 | . | 1 | 4% | 0.3% | 9% | -0.4% | 3%
COC(=O)COc1ccc(C2NC(=O)NC(c3ccccc3)=C2C(C)=O)cc1OC (stereo not given) | . | 1.1 | 11% | 0.7% | 3% | -22% | 3%
Cc1ccc(C(=O)NC(=S)Nc2ccccc2C(F)(F)F)cc1C | . | 1 | 3% | 0.1% | -6% | -5.2% | 0%
COCCn1c(C)cc(C2=NNC(=Nc3ccc(F)cc3)SC2)c1C | . | 1 | 8% | -1.7% | -2% | -4.3% | 5%
COc1ccccc1N/C(=N/S(=O)(=O)c1ccc(C)cc1)c1ccc(Cl)cc1 | . | 1.1 | 1% | 2.3% | -7% | -2.7% | 4%
Cc1cc(C)c(S(=O)(=O)NCC23C=CC(O2)C2C(=O)N(c4ccccc4)C(=O)C23)c(C)c1 (stereo not given) | . | 1.1 | 9% | -0.9% | 1% | -4.8% | -2%
O=C(CP(=O)(c1ccccc1)c1ccccc1)Nn1cnnc1 | . | 1.1 | 21% | 1.5% | 6% | -5.5% | 0%
CC1(C)CC(=O)C2=C(C1)OC(N)=C(C#N)C2c1ccccc1OC(=O)N1CCOCC1 (stereo not given) | -6 | 1.1 | 11% | 5.7% | 3% | 1.9% | 1% | Lipid droplet cells 6.5 µM=784
O=c1cc(N2CCc3ccccc3C2)[nH]c(=O)n1C1CCCCC1 | . | 1.1 | -2% | 0.4% | -10% | -5.1% | 6%
COc1ccc(C(=O)/C=C/Nc2ccc(NC(C)=O)cc2)cc1OC | . | 1 | 1% | 0.7% | 9% | -1.8% | -1%
CC(C)c1ccc(N=c2c([N+](=O)[O-])nn(-c3ccc4c(c3)OCCO4)n2O)cc1 | . | 1 | 1% | 2.2%[50 µM] | -6% | 0.6% | 4%
CCOC(=O)Nc1sc(C(=O)N(C)C)c(C)c1C(=O)OCC | . | 1.1 | 3% | -0.4% | -2% | -4.9% | 6%
Cc1ccc(N2CCN(C(=O)c3ccccc3NC(=O)/C=C\C(=O)O)CC2)cc1 | . | 1.1 | 5% | 0.3% | -5% | -3.0% | 3%
CC(C)N(CCCNC(=O)C1CCN(S(=O)(=O)N2CCOCC2)CC1)Cc1ccccc1 | . | 1.1 | 0% | 0.6% | 9% | -2.5% | 2%
O=C(CCCNC(=O)/C(=C\c1ccccc1F)NC(=O)c1ccccc1)OCc1ccccc1 | . | 1.1 | -4% | 1.8% | 1% | -1.0% | 3%
CC(=O)Nc1ccc(NC(=O)CSc2nnc(-c3ccco3)n2Cc2ccco2)cc1 | . | 1.1 | 2% | 3.2% | 7% | -1.1% | 2%
CCCCn1nc2cc(C(=O)NC[C@@H]3CCCO3)ccc2c1OCC | . | 1.1 | 4% | 1.0% | -60% | -3.1% | 2%
CN1CCN(C(=O)C(C(=O)c2ccc(F)cc2)n2ccccc2=O)CC1 (stereo not given) | . | 1 | -1% | 0.3% | 1% | -2.6% | 6%
COc1ccc(/C=N/n2c(C)nnc2C)c(OC)c1OC | . | 1.1 | 6% | 1.5% | 8% | -7.0% | -5%
COc1ccc2nc(C)cc(SCC(=O)Nc3c(C)cc(C)cc3C)c2c1 | . | . | -6% | 0.9% | 0% | -10% | -2%
COc1cccc(OCC(=O)NC2CCCCC2)c1 | . | 0.9 | -2% | 0.1% | 15% | -0.4% | 0%
O=C(O)C1C2C=CC(C2)C1C(=O)N1CCN(C/C=C/c2ccccc2)CC1 (stereo not given) | . | 1 | 4% | 0.4% | 11% | -5.0% | 2%
COc1ccc2c(c1)[nH]c1c(N3CCN(Cc4ccc5c(c4)OCO5)CC3)ncnc12 | . | 1.3 | 2% | -0.8% | 1% | -0.6% | 3%
COc1ccc(NC(=O)CCC(=O)c2ccc(-c3ccccc3)cc2)cc1 | . | 1.1 | 3% | -0.6% | 9% | -16% | 0%
Oc1ccc(C(=S)N2CCCCCC2)cc1 | . | 1.1 | -3% | 0.3% | 0% | -5.0% | -4%
COc1ccc(N2CCN(C(=O)CC3NC4CCCCC4NC3=O)CC2)cc1 (stereo not given) | 36 | 1.1 | 1% | 0.2% | -7% | -3.1% | 2% | Lipid droplet cells 6.5 µM=712
CCC(Sc1ccc2nnc(-c3ccc(F)cc3)n2n1)C(=O)O (stereo not given) | . | 1 | 21% | -0.7% | -9% | -3.3% | 4%
O=C(NN=C1C2CC3CC(C2)CC1C3)c1cc(Cl)ccc1O | . | 1.1 | 11% | -0.1% | -10% | 0.0% | -4%
CCCC(=O)N1CCN(S(=O)(=O)c2cc(Cl)ccc2OC)CC1 | . | 1.1 | 6% | -0.2% | -15% | -15% | 4%

From PubChem BioAssay
